Assay outcomes (PubChem)
NPYLR7 ag: mosquito NPYLR7 agonism; HEK293T NPYLR7/Galpha15, GCaMP6s calcium fluorescence; activation, % at 10 µM; hit rate 0.15% among 270,000; AID 1259423; in the data active means activation above about 40%;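 further: 0% = vehicle and 100% = reference agonist at the receptor; some compounds past the cut are filed as inactive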
NPYLR7 ag max-min: second read-out of NPYLR7 ag, no call of its own (marks repeat the call); activation, %; measured here: Max-Min RFU normalised activation; some inactives read as strong as hits;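 span of the calcium signal over five minutes; 0% = vehicle and 100% = native peptide agonist; compound fluorescence can raise it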
The depositor's hits bear a star; & = joins results of further samples.

SMILES | NPYLR7 ag | NPYLR7 ag max-min
COCc1cnc2c(c1SCc1cc(C)ccc1C)c(=O)n(C)c(=O)n2C | 7 | 13
CCOC(=O)C1CCCN(C(=O)c2csc(COc3ccc4c(c3)OCO4)n2)C1 (stereo not given) | 31 | 31
COC(=O)C(C)(NS(=O)(=O)CCCCC#N)c1ccccc1 (stereo not given) | 0 | -3
Cc1nc(-c2cccs2)sc1C(=O)OCc1cc(=O)n2ccsc2n1 | 1 | 5
O=[N+]([O-])c1ccccc1SNc1cc(C(F)(F)F)ccc1-n1ccnc1 | 12 | 11
Cn1cccc1C(=O)NCc1ccc(-c2cccnc2)cc1 | -7 | 832
Cc1ccccc1N1CCN(C(=O)CSc2nc(Cl)cc(N3CCN(C(=O)NC(C)C)C(C)C3)n2)CC1 (stereo not given) | 12 | 16
Cc1occc1C(=O)Nc1ccc(C(=O)NC(C)Cc2ccncc2)cc1 (stereo not given) | 1 | -3
Cc1ccc(S(=O)(=O)NCC(c2ccc3c(c2)CCCN3C)N(C)C)s1 (stereo not given) | 3 | 3
Cc1c(C(=O)N(C)CC(=O)Nc2ccc(Cl)c(Cl)c2)cnn1C | 1 | -1
Cn1nc(CN2CCOC3(CNCCOC3)C2)c2c(Cl)cccc21 (stereo not given) | 5 | 1
CCc1nc2ccc(C(=O)N(C)CCN(C)C)cn2c1N(C)C(=O)C1CCCCC1 | -10 | -13
CNCC(=O)Nc1c2c(nc3c1CCC3)CCCC2 | 2 | 1
Cc1ccc(Cl)cc1NC(=O)C1CCCN1S(=O)(=O)c1c(C)noc1C (stereo not given) | -2 | -4
Cc1ccc2nc(N=C(NC(=O)c3ccccc3)NC(=O)c3ccccc3)nc(C)c2c1 | -7 | -7
O=C1NC(=Nc2ccccc2)S/C1=C/c1ccccn1 | -9 | -13
COc1ccc(C2NN(Cc3ccccc3)C3C(=O)N(C4CCCCC4)C(=O)C23)c(OC)c1 (stereo not given) | -7 | -14
CCOc1ccc(-c2cc3c(SCC(=O)OC(C)C)nccn3n2)cc1Cl | 3 | 1
Cc1nnsc1CN(C)Cc1ccccc1-c1ccco1 | 3 | 0
CNc1nc2c(c(=O)n(C)c(=O)n2C)n1Cc1ccccc1Cl | 6 | 0
CCOCCCn1c(-c2cc(OC)c(OC)c(OC)c2)nc2nc3ccccc3nc21 | -12 | -18
CCNC(=O)C1CCCN(C(=O)c2ccc(-c3ccco3)nc2C)C1 (stereo not given) | 8 | 8
CC1(C(=O)NC2CCCC2)CCN1C(=O)C/C=C/c1ccccc1 (stereo not given) | 10 | 13
CN(CC1COc2ccccc2O1)C(=O)c1nc2ccccc2c(=O)[nH]1 (stereo not given) | 2 | 3
CCN(CC)S(=O)(=O)c1ccc2c(c1)nc(SCc1cc(C)ccc1C)n2C(C)C | 4 | 1
O=C(CCC1CCCN(C(=O)c2ccccc2-n2cccn2)C1)NCc1ccccc1F (stereo not given) | 5 | -1
Nc1cc(=O)nc(SCC(=O)N2CCCc3ccccc32)n1-c1cccc(C(F)(F)F)c1 | 13 | 8
CC1(C(=O)NS(=O)(=O)c2cccc(F)c2)CCN1C(=O)CCc1ccccc1 (stereo not given) | 0 | -2
O=C(Cc1ccc([N+](=O)[O-])cc1)N=Nc1c(O)[nH]c2ccccc12 | -2 | -8
COc1ccccc1N1CCC(N2CCN(C)C(CCO)C2)CC1 (stereo not given) | 5&-2 | 4&-4
CCC(C)c1ccccc1NC(=O)c1ccc(NC(C)=O)s1 (stereo not given) | 6 | 2
COc1ccc(OC)c(C(=O)N(C)c2ccc3ccccc3c2)c1 | -3 | -4
CCCCN(C)c1c(C)nc2ccc(C(=O)N3CCCCC3)cn12 | -5 | -11
O=C(c1csc(N2CCNC2=O)n1)N1CCCCC1 | 2 | 0
CCN1CCN(c2c(CN(C(=O)c3ccccc3F)C(C)C)c(C)nn2-c2ccccc2)CC1 | -2 | 6
CCc1ocnc1C(=O)N1Cc2cnn(Cc3ccc(F)cc3)c2C1 | -6 | -8
Cc1nnc(-c2cccc(NC(=O)C3CCN(CCC(C)c4ccccc4)CC3)c2)s1 (stereo not given) | 19 | 17
COc1ccc(N2CCN(c3cc(C(F)(F)F)nc(SCc4cccc(C(=O)O)c4)n3)CC2)cc1 | -16 | -7
COC(=O)C(c1ccccc1)C1C=CC(NC(=O)/C=C/c2cccc(C(F)(F)F)c2)C1 (stereo not given) | -2 | -10
COc1ccc(CCN(C)C(=O)c2cc(-c3ccccc3OC)nc3cc(C(C)(C)C)nn23)cc1OC | -4 | -3
CN(C)C(=O)CN1C(=O)[C@]2(C)[C@H](c3ccccc31)[C@@H](C(N)=O)CN2S(=O)(=O)c1cccs1 | 26 | 34
O=c1[nH]nc(C2CCN(c3cnc4ccccc4n3)CC2)n1Cc1ccccc1 | 13 | 7
O=C(NCC1COc2ccccc2C1)N1CCCC1c1ccsc1 (stereo not given) | 3 | 0
FC(F)(F)c1cccc(N2CCN(Cc3nc(CCc4ccccc4)no3)CC2)c1 | 6 | 0
CN(C)c1cccc(-c2nnc(SC3CCCCNC3=O)n2N)c1 (stereo not given) | 10 | 7
O=C(Nc1ccc(OC(F)(F)F)cc1)c1c(O)c2ccccc2[nH]c1=O | 4 | 0
Cc1cc(C(C)(C)C)cc(C)c1S(=O)(=O)N1CCN(C(=O)c2cnn(C)c2C)CC1 | -1 | 27
C=CCCOC(=O)N1c2cccc3c2[C@@H](C[C@H]1C(N)=O)CN(CCOC)C3=O | 0 | 4
Cn1ncc2c(NCCNC(=O)c3cccnc3)nc(C(C)(C)C)nc21 | 3 | 5
CC(NC(=O)COc1cccc(F)c1)c1nc2ccccc2[nH]1 (stereo not given) | 1 | -10
CCOC(=O)C1(CCCc2ccccc2)CCCN(C(=O)c2cc3ncccn3n2)C1 (stereo not given) | 5 | 1
CCc1cc2c(SCC(=O)C(C)(C)C)ncnc2s1 | -4 | -4
COc1ccc(NC(=O)N2CCCN(C(=O)c3cccc(C)c3)CC2)cc1 | 0 | -1
COCc1nc(N(C)CCCn2nc(C)cc2C)c2cnn(C)c2n1 | -6 | -10
CCCCCn1c(CN(C)Cc2ccccc2)nc2c1c(=O)n(C)c(=O)n2C | -2 | -5
COc1cc(F)ccc1-c1ccc2nc[nH]c2c1 | 8 | 0
O=C(NCc1cccs1)c1ccc(CSc2ccc3ccccc3n2)cc1 | 12 | 7
Cc1ccc(NC(=O)CNC(C)CN2CCOCC2)c(F)c1 (stereo not given) | -1 | -2
Cc1ccn2c(NC(C)(C)CC(C)(C)C)c(-c3cccc(O)c3)nc2c1 | 7 | 8
Cc1c(Cl)cccc1NC(=O)CSc1ncnc2sc3c(c12)CCC3 | -2 | -6
Later entries.
SMILES | NPYLR7 ag | NPYLR7 ag max-min
CC(C)Oc1cccc(F)c1-c1ccc2c(c1)CC(=O)N2 | -2 | -5
CCN(CC)C(=O)CC1(C)N=C(c2cccc(C(F)(F)F)c2)N(C)O1 (stereo not given) | 8 | 6
O=C(CN1CN(c2ccccc2)C2(CCN(C(=O)Nc3cccc(F)c3)CC2)C1=O)N1CCCCC1 | -5 | -3
Cc1noc(-c2ccc(C(C)(C)C)cc2)c1C(=O)NCCc1ccncc1 | 1 | 9
CCCCCc1ccc(S(=O)(=O)N2CCN(Cc3cc(=O)c(OCc4cc(C)cc(C)c4)co3)CC2)cc1 | 5 | 6
CCOc1ccc(C(F)(F)F)cc1NC(=O)C1CC(=O)N(C(C)C)C1 (stereo not given) | -2 | -2
CCCCCCOc1ccccc1-c1nc2ccccc2c(=O)n1Cc1cccc(Cl)c1 | 4 | -1
CC(SCCCc1ccccc1)C(=O)Nc1ccccc1Cl (stereo not given) | 1 | 0
CSc1ncccc1C(=O)N1CCN(c2nccc(-c3ccc(C(C)(C)C)cc3)n2)CC1 | -17 | -13
COc1ccc(N(Cc2cccs2)Cc2nccn2C)cc1 | 11 | 9
Cc1occc1C(=O)NCc1cccnc1N(C)C | -3 | -8
COc1cc2c(cc1O)NC(=O)CC2c1ccc(-c2ccn[nH]2)s1 (stereo not given) | 14 | 13
COc1ccc(-c2c(C#N)c(N)n3c(nc4ccccc43)c2C#N)cc1OC | 11 | 17
Cc1nc(C(C)NC(=O)CCc2nnc(CCCc3ccccc3)o2)c(C)s1 (stereo not given) | 3 | 1
CC(C)C1CN(C(=O)c2nn(C)c3ccccc23)CCC(=O)N1CC1CC1 (stereo not given) | 9 | 6
O=[N+]([O-])c1nn(-c2ccc3c(c2)OCCO3)n(O)c1=NC1CCCCCC1 | -2 | -10
CCc1csc(CNC(=O)c2ccc(N[C@@H]3C[C@@H](CO)N(C)C3)nc2)n1 | -3 | -9
O=C(Nc1ccc(F)cc1F)Nc1ccc(F)cc1F | -2 | -3
CCOc1ccccc1NC(=O)N1CCC(CCc2ccc(C(F)(F)F)cc2)CC1 | 18 | 11
Cc1cc(O)c(C(c2cccc(F)c2)N2CCN(c3ccc(F)cc3)CC2)c(=O)n1Cc1ccco1 (stereo not given) | 11 | 2
CC(=O)OC(C(=O)N1CCC(Cc2ccc(F)cc2)CC1)c1ccccc1 (stereo not given) | 1 | 10
COc1cccc(NC(=O)c2cn(CC(=O)NC3CCCC3)c3nc(C)ccc3c2=O)c1 | -1 | -1
COc1cc(NC(=O)C(C#N)Cc2ccc3[nH]ccc3c2)cc(OC)c1OC (stereo not given) | 3 | 23
Cc1nn(-c2ccccc2)c(C)c1CNC(=O)COc1cc(Cl)ccc1Cl | -2 | -4
O=C1CC(N2CCN(S(=O)(=O)c3ccccc3)CC2)C(=O)N1c1cccc(Cl)c1 (stereo not given) | 3 | 0
Cn1c(=O)c2c(nc(CN3CCN(c4ccccc4F)CC3)n2CC(=O)C(C)(C)C)n(C)c1=O | -3 | -3
CCCCNCC(=O)N(CCc1ccc(OC)c(OC)c1)Cc1cccs1 | -14 | -15
COc1ccc2c(c1)C(=O)/C(=C\c1cc(OC)c3c(c1)OCCO3)CO2 | -3 | -3
O=C(/C=C/c1ccco1)N1CC[C@@H](N2CCN(CCc3ccccc3)CC2)[C@H](O)C1 | 6 | 6

Part of the list above, with two lines to a compound:
Fields – NPYLR7 ag | NPYLR7 ag max-min
> COc1cc(F)ccc1-c1ccc2nc[nH]c2c1
    8 | 0
> O=C(NCc1cccs1)c1ccc(CSc2ccc3ccccc3n2)cc1
    12 | 7
> Cc1ccc(NC(=O)CNC(C)CN2CCOCC2)c(F)c1 (stereo not given)
    -1 | -2
> Cc1ccn2c(NC(C)(C)CC(C)(C)C)c(-c3cccc(O)c3)nc2c1
    7 | 8

Molecules from the list above with an aryl thioether with sulfur outside any ring:
SMILES | NPYLR7 ag | NPYLR7 ag max-min
COCc1cnc2c(c1SCc1cc(C)ccc1C)c(=O)n(C)c(=O)n2C | 7 | 13
Cc1ccccc1N1CCN(C(=O)CSc2nc(Cl)cc(N3CCN(C(=O)NC(C)C)C(C)C3)n2)CC1 (stereo not given) | 12 | 16
CCOc1ccc(-c2cc3c(SCC(=O)OC(C)C)nccn3n2)cc1Cl | 3 | 1
CCN(CC)S(=O)(=O)c1ccc2c(c1)nc(SCc1cc(C)ccc1C)n2C(C)C | 4 | 1
Nc1cc(=O)nc(SCC(=O)N2CCCc3ccccc32)n1-c1cccc(C(F)(F)F)c1 | 13 | 8
COc1ccc(N2CCN(c3cc(C(F)(F)F)nc(SCc4cccc(C(=O)O)c4)n3)CC2)cc1 | -16 | -7
CN(C)c1cccc(-c2nnc(SC3CCCCNC3=O)n2N)c1 (stereo not given) | 10 | 7
CCc1cc2c(SCC(=O)C(C)(C)C)ncnc2s1 | -4 | -4
O=C(NCc1cccs1)c1ccc(CSc2ccc3ccccc3n2)cc1 | 12 | 7
Cc1c(Cl)cccc1NC(=O)CSc1ncnc2sc3c(c12)CCC3 | -2 | -6
CSc1ncccc1C(=O)N1CCN(c2nccc(-c3ccc(C(C)(C)C)cc3)n2)CC1 | -17 | -13

Not all compounds are listed; rates above refer to the full screens.
